# Six1-Eya2 inh: qHTS Assay for Inhibitors of the Six1/Eya2 Interaction | AlphaScreen GST-Six1/His-Eya2 binding, biochemical; stronger effect = lower value; control for the full effect not named in the record | activity change, % (no concentration beside the values) | AID 651725, 2012 | 0.56% of 360,000 active; in the data active = activity change below about -65%; inconclusive = about -30% to -65%; inactive = above about -30%; also: % is scaled to controls: 0 for no effect and ±100 for the full control effect; compound concentration not given in the record
# Target sequence (O00167 whole entry, looked up): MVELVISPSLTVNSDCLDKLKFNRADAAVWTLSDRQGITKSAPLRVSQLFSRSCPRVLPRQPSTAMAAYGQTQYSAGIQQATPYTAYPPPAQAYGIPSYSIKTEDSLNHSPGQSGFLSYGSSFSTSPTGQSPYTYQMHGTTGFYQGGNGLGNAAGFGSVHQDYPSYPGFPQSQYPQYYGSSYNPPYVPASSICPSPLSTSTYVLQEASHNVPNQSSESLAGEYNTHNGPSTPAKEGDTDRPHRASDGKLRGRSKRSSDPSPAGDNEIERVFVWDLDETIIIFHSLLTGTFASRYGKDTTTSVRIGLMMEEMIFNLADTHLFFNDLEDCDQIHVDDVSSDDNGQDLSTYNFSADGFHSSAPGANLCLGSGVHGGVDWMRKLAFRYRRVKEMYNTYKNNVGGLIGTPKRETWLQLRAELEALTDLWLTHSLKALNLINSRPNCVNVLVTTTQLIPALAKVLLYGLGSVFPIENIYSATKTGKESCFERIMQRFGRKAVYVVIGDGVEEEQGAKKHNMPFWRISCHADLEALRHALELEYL
# Target sequence (Q15475 whole entry, looked up): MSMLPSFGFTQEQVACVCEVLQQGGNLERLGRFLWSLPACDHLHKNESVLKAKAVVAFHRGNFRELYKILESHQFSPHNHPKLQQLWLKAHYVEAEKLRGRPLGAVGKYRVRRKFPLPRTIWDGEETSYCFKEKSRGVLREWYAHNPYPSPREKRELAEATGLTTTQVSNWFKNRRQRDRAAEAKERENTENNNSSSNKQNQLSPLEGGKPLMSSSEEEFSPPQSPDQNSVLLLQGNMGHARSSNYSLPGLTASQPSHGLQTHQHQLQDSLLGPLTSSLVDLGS
#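 Compounds are tested against tagged Six1 and Eya2 proteins bridged by glutathione donor and nickel acceptor beads; after a one-hour incubation at 37 °C without light, AlphaScreen emission is recorded.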
# gsp antagonist: qHTS for Antagonists of gsp, the Etiologic Mutation Responsible for Fibrous Dysplasia/McCune-Albright Syndrome: qHTS | gsp-mutant cells, cAMP HTRF, 30 min; control for the full effect not named in the record | Potency, µM (titrated, usually from 76.9 µM), without a hit: at the top dose activity change, negative = inhibition, usual class: inhibitors | 0.4% of 340,000 active; active = falling curve of any shape with a large fitted effect; inconclusive = falling curve, mostly with a smaller effect; inactive = flat or rising curve; cell line not stated here;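 also: intracellular cAMP measured with PDE inhibitor Ro 20-1724 present during compound exposure; potency is read from the fitted curve at half-maximal effect; % is scaled to controls: 0 for no effect and ±100 for the full control effect; nearly all actives have a fitted effect of over 65% in size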
#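 Cells in G418 medium, seeded 16-24 h, 37C; buffer exchange to DPBS + 1 mM CaCl2, 0.5 mM MgCl2, 0.05% BSA; cpds in DMSO + […] (300 uM stock), 30 min 37C; HTRF cAMP detection.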
# CtBP-E1A blk: qHTS Assay for Inhibitors of the CtBP/E1A Interaction. 0.49% of 340,000 active. AID 651724, 2012. CtBP / adenovirus E1A interaction (AlphaScreen). activity change, % (no concentration beside the values). AlphaScreen GST-E1A/His-CtBP binding, 1536-well; stronger effect = lower value; control for the full effect not named in the record; in the data active means activity change below about -65%; inconclusive means about -30% to -65%; inactive means above about -30%; also: % is scaled to controls: 0 for no effect and ±100 for the full control effect; compound concentration not given in the record
#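 In 5 uL wells, 23 nL compound meets equimolar GST-E1A and His-CtBP (5X stock 125 nM each) for 2 h, 37 °C. Beads (5X, 50 ug/mL) then 1 h, 37 °C, dark.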
# D2 ag: Beta-Arrestin HTS for Positive Allosteric Modulators of the Human D2 Dopamine Receptor: Agonists; D(2) dopamine receptor (Homo sapiens), P14416; DiscoveRx PathHunter D2 beta-arrestin, luminescence, 90 min; 100% = 57 uM dopamine signal; activation, % (no concentration beside the values); 0.084% of 360,000 active; in the data active = activation above about 40%; inconclusive = about 15% to 40%; inactive = below about 15%; also: compound concentration not given in the record; the text of the record calls up to 30% inactive
#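 Agonist mode: compounds alone added to overnight-plated D2 PathHunter cells for 90 min at 37 C, with 57 uM final dopamine (EC100) defining full response. Beta-arrestin recruitment detected by chemiluminescent reagent, read after 1 h at ambient temperature.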
# D2 potentiator: Beta-Arrestin HTS for Positive Allosteric Modulators of the Human D2 Dopamine Receptor: Potentiators; potentiation, % (concentration not given with the values); 0.23% of 360,000 active; DiscoveRx D2 beta-arrestin cells, luminescence, 90 min; 100% = 57 uM dopamine signal; D(2) dopamine receptor (Homo sapiens), P14416; active = potentiation of 50% or more; inconclusive = 30% to 50%; inactive = 30% or less;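 also: compound concentration not given in the record; tested on top of an EC20 dose of dopamine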
#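 PathHunter D2 cells, attached overnight at 37 deg C, received compound in DMSO plus dopamine at EC20 (50 nM final) for 90 min at 37 deg C. Beta-arrestin recruitment was read as luminescence after 1 h with detection reagent at ambient temperature.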
# gsp ag: qHTS for Agonist of gsp, the Etiologic Mutation Responsible for Fibrous Dysplasia/McCune-Albright Syndrome: qHTS; gsp mutant cells, cAMP HTRF, 30 min; control for the full effect not named in the record; Potency, µM (titrated, usually from 76.9 µM), for the others: top-dose activation (cAMP increase), most hits filed as activators; 0.13% of 340,000 active; AID 624287, 2012; active = well fitted activation curve with a large enough effect; inconclusive = small, poorly fitted or top-dose-only effect, or another doubt; inactive = no such curve, though single readings can be large or run the other way; cell line not stated here;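 also: phosphodiesterase inhibitor Ro 20-1724 added with compounds to block cAMP breakdown; potency is read from the fitted curve at half-maximal effect; nearly all actives have a fitted effect of over 60% in size; about a fifth of the inactives were tested at one dose only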
#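 Cells stably selected in G418 were plated at 2000/well, grown 16-24 hr, then given compounds in DMSO with the PDE inhibitor […] (300 uM solution added) for 30 min at 37C; cAMP was read by HTRF.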
# An asterisk follows results filed as active; ? = inconclusive; / = no result given; [ ] = another dose, or the depositor's remark. An excerpt, so the mix of outcomes need not match the whole.
SMILES,Six1-Eya2 inh,gsp antagonist,CtBP-E1A blk,D2 ag,D2 potentiator,gsp ag
CCOC(=O)c1c(C)n(Cc2ccccc2)c2ccc(OCC(O)Cn3nc(C)nc3C)cc12 (centres undefined),4,-5%,0,4.6,-3,-11%
COC(=O)C1(C(=O)O)Cc2cc([N+](=O)[O-])ccc2N2CCCC21 (centres undefined),-9,-10%,/,-6.7,-10,?
COc1ccc(C(=O)c2nc3ccccc3n2C(C)C)cc1,9,-3%,-1,13,-8,8%
COC(=O)C1=C(c2ccc(F)cc2OCc2ccccc2)C[C@@H]2CC[C@H]1N2C(=O)NCc1ccccc1Br,-12,-15%,-4,-12,-10,13%
O=C(CN1CCN(Cc2ccc(Cl)cc2)C1=O)N1CCC2(CC1)OCCO2,-3,6%,9,-2.2,-6,6%
CC(=NCCN1CCCCC1)c1c(O)n(-c2ccccc2)c(=O)[nH]c1=O,-5,-6%,12,-1.9,-9,6%[15.4 µM]
O=C(CCS(=O)(=O)c1ccc(Br)cc1)N1CCC2(CC1)OCCO2,3,5%,-9,0.0,2,-23%
C[N+]1(C)[C@@H]2CC[C@H]1CC(OC(=O)C(c1ccccc1)c1ccccc1)C2 (some centres undefined),13,10%,/,-3.7,-6,-17%
CCCCn1c(O)c(C(CC)=NCCN2CCOCC2)c(=O)[nH]c1=O,-1,2%,-5,-1.6,-12,8%
O=C(c1ccc(Cl)cc1)N1CCC2(CC1)OCCO2,-2,3%,-4,-1.6,-1,10%
O=[N+]([O-])c1ccccc1-c1cc(-c2ccccc2)cc(-c2ccccc2)[n+]1Cc1ccccc1Cl,-17,-1%,-5,2.8,-67,/
O=[N+]([O-])c1ccc(-c2ccccc2)c([As](=O)(O)O)c1,6,-9%,/,1.3,-11,24%
CC1CN(c2ccc([N+](=O)[O-])cc2Cl)CCN1 (centres undefined),-5,7%,/,-8.8,-14,-29%
COC(=O)C1=C(c2cc3ccccc3o2)C[C@@H]2CC[C@H]1N2C(=O)N1CCC(O)CC1,-6,-11%,-1,-2.1,-9,?
C[N+]1(C)C2CCC1CC(OC(=O)c1ccccc1)C2 (centres undefined),-2,9%,1,-2.5,-7,-29%
Cc1cccc(OCCn2cccc2/C=C2/C(=O)NC(=O)N(Cc3ccco3)C2=O)c1,-29,?,-3,-4.4,-10,17%
CC(=O)N1CCN(CCN=Cc2c(O)n(-c3ccc(C)cc3)c(=S)[nH]c2=O)CC1,2,7%,0,-2.1,3,8%
O=c1c2ccccc2nc(CN2CCCCCC2)n1-c1ccc(F)cc1,2,-8%,4,-1.3,-5,0%
COC(=O)C1=C(c2ccc(F)cc2OCc2ccccc2)C[C@@H]2CC[C@H]1N2C(=O)N1CCC(C)CC1,0,-13%,/,-4.1,-13,?
CC(C)(C)c1ccc(O)c(CN2CCN(c3ccccc3)CC2)c1,-8,1%,-15,-1.7,-31,-6%
C=CCn1c(O)c(C(CC)=Nc2ccc(N(C)C)cc2)c(=O)[nH]c1=O,-5,-15%,-9,8.9,23,-5%[15.4 µM]
O=c1c2ccccc2nc(/C=C/c2ccccc2)n1-c1ccccc1O,-5,-17%,?,7.1,14,6%
CN1C(=O)C(=Cc2ccc(Sc3ccccc3)o2)C(=O)N(C)C1=S,-13,3%,-4,-2.5,-3,13%[15.4 µM]
O=C1NC(=O)C(=Cc2coc3ccccc3c2=O)C(=O)N1,1,1%,/,1.0,-4,-44%[inhibitor]
O=C(c1cc(F)ccc1F)C1CCCN(Cc2cccc(Cl)c2)C1 (centres undefined),22,-1%,/,-3.3,-21,3%
CCn1c(O)c(C=NCCN2CCOCC2)c(=O)n(CC)c1=S,-1,-19%,/,-4.8,-20,12%
CCOC(=O)C1(CCOc2ccccc2)CCN(Cc2cccc(O)c2)CC1,-4,6%,-4,5.8,-23,-71%[inhibitor]
CCOc1ccc(N=C2SCCCN2C)cc1,3,12%,7,-1.2,0,10%
CC(C)N1CCC2(CC1)NC(CO)(CO)CO2,4,13%,7,-4.1,-5,-5%
COc1ccccc1OCC(=O)N1CCCC(N2CCN(c3ccc(F)cc3)CC2)C1 (centres undefined),0,1%,10,-2.5,-28,-48%[inhibitor]
COc1cccc(-n2c(C)nc3ccccc3c2=O)c1,-4,11%,-2,-0.5,10,9%
COc1ccc2c3c1OC1C(O)C=CC4[C@@H](C2)N(C)CC[C@]314 (some centres undefined),2,1%,0,-4.0,0,/
O=[N+]([O-])c1ccc(N(CCO)CCO)c2c1no[n+]2[O-],-6,/,?,-5.4,-22,-19%
O=C1/C(=C\c2cc3c(cc2Br)OCO3)N2CCC1CC2,-1,7%,3,-1.5,-15,23%
CC1CN=C(NCCc2ccccc2)S1 (centres undefined),6,10%,-2,-5.2,-5,-2%[15.4 µM]
CN1CCCN(c2ccc([N+](=O)[O-])nc2)CC1,6,5%,1,-4.0,-9,?
CN1C(=O)/C(=C\c2ccc(N3CCCCC3)o2)C(=O)NC1=S,7,9%,4,-4.6,-6,?
COc1ccc2c(c1)NP(=S)(Oc1ccccc1)N2 (centres undefined),-22,3%,-9,-0.5,-2,11%[15.4 µM]
CC(C)c1c(CN(C)C(C)Cc2ccccc2)n(C)n(-c2ccccc2)c1=O (centres undefined),7,-10%,2,-0.4,-11,/
Cc1ccc(O)c(C(=O)c2cc(C(=O)NCc3ccccc3)c(=O)n(Cc3ccccc3)c2)c1,-20,-19%,-16,-2.9,-11,1%

# Single records, as listed above. Order of values: Six1-Eya2 inh, gsp antagonist, CtBP-E1A blk, D2 ag, D2 potentiator, gsp ag
# Listed for O=c1c2ccccc2nc(/C=C/c2ccccc2)n1-c1ccccc1O = -5, -17%, ?, 7.1, 14, 6%
# Listed for CN1C(=O)/C(=C\c2ccc(N3CCCCC3)o2)C(=O)NC1=S = 7, 9%, 4, -4.6, -6, ?
# Listed for CC1CN(c2ccc([N+](=O)[O-])cc2Cl)CCN1 (centres undefined) = -5, 7%, /, -8.8, -14, -29%
# Listed for COc1ccccc1OCC(=O)N1CCCC(N2CCN(c3ccc(F)cc3)CC2)C1 (centres undefined) = 0, 1%, 10, -2.5, -28, -48%[inhibitor]
# Listed for CC(C)(C)c1ccc(O)c(CN2CCN(c3ccccc3)CC2)c1 = -8, 1%, -15, -1.7, -31, -6%

# The results go on:
SMILES,Six1-Eya2 inh,gsp antagonist,CtBP-E1A blk,D2 ag,D2 potentiator,gsp ag
Cc1cccc(CNCCc2ccccc2)n1,5,-16%,8,-4.4,-18,-32%[inhibitor]
FC(F)(F)/C(=N\P(=S)(N1CCOCC1)N1CCOCC1)N1CCOCC1,4,-7%,9,1.4,-5,-9%
CCCCS(=O)(=O)N1CCN(C(=N)N[N+](=O)[O-])CC1,5,16%,-17,-3.2,0,10%[15.4 µM]
CCCCN1CCC(O)(c2ccccc2)C(C(=O)c2ccccc2)C1 (centres undefined),-4,-11%,3,-4.2,-15,23%
CCN1CCN(Cc2cc3c(cc2[N+](=O)[O-])OCO3)CC1,8,7%,/,-4.8,-55,-43%[inhibitor]
COc1cccc(-c2cc(C(F)(F)F)n3nc(C(=O)N4CCC5(CC4)OCCO5)cc3n2)c1,3,-4%,4,-1.7,-11,?
O=C(N/N=C/c1c(O)n(Cc2ccccc2)c(=O)[nH]c1=O)c1ccccc1O,-89*,-1%,0,-1.5,-29,12%
O=C1NC(=O)N(C2CCCCC2)C(=O)C1C1c2ccccc2C(=O)N1Cc1ccccc1 (centres undefined),-1,9%,0,-3.2,-3,3%
O=P(C(Cl)Cl)(N1CCOCC1)N1CCOCC1,10,-1%,-1,-1.2,-3,22%
CC(=O)Nc1ccc(OC(=O)N(C)c2ccccc2)cc1,3,19%,14,-4.3,-23,-3%
Cc1ccc(CN2CCN(Cc3ccccc3F)CC2)cc1,0,-1%,/,-4.2,-21,-1%
Cc1ccc(O)c(CN2CCC3CCC(C3)C2)c1 (centres undefined),-4,2%,7,-6.6,-13,23%[15.4 µM]
C=CCn1c(O)c(/C(CC)=N/NC(=S)Nc2ccccc2)c(=O)[nH]c1=O,20,4%,1,-3.3,-9,-4%[15.4 µM]
CC(Cc1ccccc1)/[N+]([O-])=C\c1ccc(C(F)(F)F)cc1 (centres undefined),2,1%,31,-0.3,-17,-57%[inhibitor]
O=c1[nH]c(=O)n(Cc2ccco2)c(O)c1C=NCCN1CCNCC1,-10,8%,4,2.4,-15,-1%[15.4 µM]
Cc1ccc(N2C(=O)/C(=C/c3ccc(CN(CCC#N)S(C)(=O)=O)o3)C(=O)NC2=S)cc1,?,-2%,-15,-7.6,-4,4%
COC(=O)C1=C(c2ccc(OC(F)(F)F)cc2)C[C@@H]2CC[C@H]1N2C(=O)NCCO,-1,7%,0,-3.9,-1,?
Cc1ccc2c(c1)N(C(C)C(=O)N1CCC3(CC1)OCCO3)C(=O)CO2 (centres undefined),0,6%,10,12,2,9%
CN1CCCC(C(=O)c2ccc(-c3ccccc3)cc2)C1 (centres undefined),-14,11%,/,1.3,-5,-4%
O=c1[nH]c(=O)n(Cc2ccc(F)cc2)c(O)c1C=NCCCn1ccnc1,-1,10%,2,3.2,-7,?
C[C@]12CCC(=O)C[C@H]1CC[C@@H]1[C@@H]2CC[C@]2(C)C(=O)CC[C@@H]12,4,-12%,8,3.8,-13,/
CCN1C(=O)NC(=O)C2(CCCC2)C1=O,6,8%,-21,3.9,-10,1%
COc1ccc(CCn2c(O)c(C=NC3CC3)c(=O)[nH]c2=O)cc1OC,-3,-1%,-7,-0.9,9,23%
CCN1CCC2(CCNC2)C1 (centres undefined),4,6%,-7,-1.2,-1,16%
NS(=O)(=O)c1cccc(N2CCNCC2)c1,-2,15%,-13,-7.5,-9,6%[15.4 µM]
COc1ccc(/C=C2\C(=O)NC(=O)N(Cc3ccccc3)C2=O)c(OC)c1OC,-1,-16%,/,1.7,-4,-7%
Cn1c(O)c(C(=Nc2ccccc2)SCc2ccc(Cl)cc2)c(=O)n(C)c1=O,-2,-10%,/,1.5,-2,23%
CC(=O)N1CCCSC1=Nc1ccccc1,1,11%,-7,-1.5,-1,0%[15.4 µM]
Cc1ccc(NP(=O)(Oc2ccccc2)Oc2ccccc2)cc1,-2,2%,0,-3.1,-5,23%
O=P(O)(O)COc1ccccc1O,4,-5%,11,0.7,0,2%
COc1cc(C(C#N)N2CCOCC2)ccc1O (centres undefined),3,-5%,16,-0.8,-6,?

# Bioassay records (PubChem BioAssay)
